hNpr1 antagonist – human Npr1 receptor antagonism | P16066 | Potency, µM (series often up to 46.3 µM), for the others: at the highest dose activity change, negative = inhibition, usual class: inhibitors | 1.6% of 76,000 active | HEK293 hNpr1 GloSensor cGMP, ANP-stimulated luminescence; active = well fitted inhibition curve with a large enough effect; inconclusive = small, poorly fitted or top-dose-only effect; inactive = no such curve, though single readings can be large or run the other way;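 further: nearly all actives have a fitted effect of over 60% in size; nearly all hits also lower the signal before the agonist is added; a reference antagonist and vehicle were the controls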
Target sequence (P16066 whole entry, looked up): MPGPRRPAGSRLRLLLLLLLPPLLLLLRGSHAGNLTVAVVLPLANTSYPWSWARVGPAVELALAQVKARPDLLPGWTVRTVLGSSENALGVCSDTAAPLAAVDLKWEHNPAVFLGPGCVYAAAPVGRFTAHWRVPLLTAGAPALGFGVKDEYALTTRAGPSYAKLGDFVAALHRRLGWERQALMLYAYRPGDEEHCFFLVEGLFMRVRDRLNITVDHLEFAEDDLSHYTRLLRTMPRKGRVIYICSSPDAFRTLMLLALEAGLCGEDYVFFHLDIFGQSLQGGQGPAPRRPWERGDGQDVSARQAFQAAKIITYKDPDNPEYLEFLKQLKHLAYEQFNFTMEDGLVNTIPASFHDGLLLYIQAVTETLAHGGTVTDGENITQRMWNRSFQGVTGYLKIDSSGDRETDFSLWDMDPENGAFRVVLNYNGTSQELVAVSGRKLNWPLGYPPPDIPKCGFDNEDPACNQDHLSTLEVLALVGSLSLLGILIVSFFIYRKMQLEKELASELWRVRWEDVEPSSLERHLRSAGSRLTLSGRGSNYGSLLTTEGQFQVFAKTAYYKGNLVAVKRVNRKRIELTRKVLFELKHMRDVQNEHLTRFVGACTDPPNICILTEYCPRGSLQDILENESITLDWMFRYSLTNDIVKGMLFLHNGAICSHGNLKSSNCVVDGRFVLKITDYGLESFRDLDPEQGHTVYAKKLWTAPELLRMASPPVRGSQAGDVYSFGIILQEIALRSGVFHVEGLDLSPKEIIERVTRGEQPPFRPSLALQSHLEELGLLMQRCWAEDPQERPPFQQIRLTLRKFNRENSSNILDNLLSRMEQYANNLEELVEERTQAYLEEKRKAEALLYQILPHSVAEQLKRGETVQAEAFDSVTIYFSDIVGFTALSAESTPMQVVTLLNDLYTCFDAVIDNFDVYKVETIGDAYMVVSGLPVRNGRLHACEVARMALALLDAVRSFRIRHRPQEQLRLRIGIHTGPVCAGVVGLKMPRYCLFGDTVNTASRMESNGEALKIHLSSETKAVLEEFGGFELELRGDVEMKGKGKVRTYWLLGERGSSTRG
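Compound pre-incubated 30 min at room temperature on GloSensor-loaded HEK293 cells stably carrying hNpr1 and the pGS-40F cGMP biosensor. Stimulation uses hNppA at 0.1 nM final; luminescence is taken at baseline and 20 min post-agonist.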
The depositor's hits bear a star; ? = inconclusive; [ ] = remark or other dose. On the % scale 0 is the no-effect control and ±100 the full control effect; potency means the concentration at half of the fitted maximal effect. These rows are one share of the data; the hit share may differ from the screen's.

hNpr1 antagonist | SMILES
3.8% | O=C(Cc1ccsc1)N1CCC2(CC1)CC(OCC1CC1)CCO2 (stereo unspecified)
-12.8% | Cn1c(=O)n([C@H]2CCCN(C(=O)CN3CCCCCC3)C2)c2ncccc21
-15.3% | O=C(c1cncc(Br)c1)N1CCC(CCOc2ccccc2F)C1 (stereo unspecified)
6.9% | O=C(c1cccnc1)N1CCC2(CCCN(C3CCOCC3)C2=O)C1 (stereo unspecified)
-4.2%[70.6 µM] | CC[C@H]1CN(S(=O)(=O)c2ccccc2)CC[C@H]1CC(=O)N1CCOCC1
3.3% | CCCCc1ccc(NC(=O)N2CCCC2c2nncn2C2CCCC2)cc1 (stereo unspecified)
0.9% | Cc1nc(-c2c3n(c(=O)n(CC(=O)NCc4ccc(F)cc4)c2=O)CCCC3)no1
-1.8%[70.6 µM] | O=C1COCC2(CN(c3ccc(C(F)(F)F)cn3)C2)CN1c1cccnc1
4.0% | CCn1ccc(C(=O)N2C[C@@H]3CCCN4CCC[C@@H]([C@H]34)[C@H]2CCCC(=O)Nc2ccccc2)n1
4.0% | Cc1cnc(CN2CC(C)(Cc3ccc4c(c3)OCO4)CCC2=O)cn1 (stereo unspecified)
-2.0% | CCCOc1ccc(CN2CCC(C3CCN(C(C)=O)CC3)C2)cc1 (stereo unspecified)
-7.9% | CCCS(=O)(=O)N1C[C@@H](Oc2cccnc2)C[C@@H]1C(=O)N1CCOCC1
3.0% | Cn1cnc(S(=O)(=O)N2CC(N(Cc3ccccc3)C3CCOCC3)C2)c1
2.2%[70.6 µM] | CC(=O)Nc1ccc(CN2C[C@H](O)C[C@H]2c2nc(C(C)C)no2)cc1
-10.0% | CCN(CC)C(=O)[C@@H]1[C@H](c2cc(OC)c(OC)c(OC)c2)c2cc3c(cc2[C@H](O)[C@H]1CO)OCO3
-1.9% | Cc1nnc2n1CCC(NC(=O)CCCc1nc3ccccc3s1)CC2 (stereo unspecified)
-14.7% | COc1ccc(CC(=O)N[C@@H]2CN(Cc3ccccc3)C[C@H]2CO)cc1
-7.8% | CN1C(=O)C(CC(N)=O)=C2CCCCC21 (stereo unspecified)
4.7% | CCCNC(=O)N1CCC(Oc2ccccc2-c2nc(-c3ccncc3)no2)C1 (stereo unspecified)
-13.4%[70.6 µM] | Cc1ccccc1C(=O)Nc1ccc([C@H]2OCC(=O)N(Cc3ccncc3)[C@@H]2CO)cc1
9.1% | COc1ccc(CC(=O)N2CCN(c3nc4ncccc4o3)CC2)cc1
4.8%[70.6 µM] | Cc1noc(C)c1-c1cc2cc(C(C)C)oc2c(NC2CCN(C)CC2)n1
-0.4% | Cc1nc2ncccn2c1C(=O)N1C[C@H]2C(=O)NC[C@@]2(C(=O)O)C1
6.2% | O=C(CN1C(=O)NC2(CCS(=O)(=O)CC2)C1=O)Nc1cccc(C(F)(F)F)c1
2.9% | O=C(NCC1COc2ccccc2C1)c1nccnc1C(=O)N1CCCCC1 (stereo unspecified)
1.9%[70.6 µM] | COC1CCN(c2cc(-c3ccccc3)nc3c(C)noc23)CC1
? | O=C1CC(c2noc(-c3ccc(F)cc3)n2)CN1c1ccc(Cl)cc1 (stereo unspecified)
-2.2% | CN(C)[C@@H]1CN(C(=O)C2CC2)CC[C@]1(O)c1ccccc1
2.4% | CCn1cc(S(=O)(=O)N2C[C@@H](C(=O)NC)[C@H](c3n[nH]c(C)n3)C2)cn1
6.3% | COc1ccc(C(=O)N2CCC(Oc3cccnc3)C2)cc1 (stereo unspecified)
-5.8% | O=C1NCCCCCCN(C(=O)NCCc2ccccc2)[C@H]2CCC[C@@H]12
1.0% | O=C1CCN(C(=O)Nc2ccccc2)CCCCCCN1
-14.0%[70.6 µM] | COCCN1Cc2ccc(NCc3ccccc3)nc2C(C)(C(=O)Nc2ccccc2)C1 (stereo unspecified)
5.0% | COc1ccc(CCC(=O)N2CCC(c3n[nH]c(=O)n3-c3ccccc3)CC2)cc1
0.9% | Cn1ccnc1-c1cn(Cc2ccccc2Cn2cccn2)nn1
1.2% | COCCN1C(=O)CC[C@]2(C(=O)N3CCSCC3)CCCC[C@@H]12
0.1% | Cc1cccc(C(=O)N2CCCC(c3nc(C(C)C)no3)CCNC(=O)CC2)c1 (stereo unspecified)
4.6% | CCCCOc1ccc(-c2nc(C3CC(=O)N(c4ccc(F)cc4)C3)no2)cc1 (stereo unspecified)
-0.1% | OC1CC(c2cc(NCC3(c4ccccc4)CCOCC3)ncn2)C1 (stereo unspecified)
-12.1% | CCc1ocnc1C(=O)N1CCC(C2CCN(Cc3cccc(F)c3F)CC2)C1 (stereo unspecified)

The final 2 records of the section before are carried over, then new ones follow:
hNpr1 antagonist | SMILES
-0.1% | OC1CC(c2cc(NCC3(c4ccccc4)CCOCC3)ncn2)C1 (stereo unspecified)
-12.1% | CCc1ocnc1C(=O)N1CCC(C2CCN(Cc3cccc(F)c3F)CC2)C1 (stereo unspecified)
12.6%[70.6 µM] | CCCCn1c(=O)[nH]c2cccnc21
1.9%[70.6 µM] | COc1ccccc1-c1cn2c(n1)CO[C@@H](CNC(=O)c1ccc(F)cc1)C2
5.9% | Cc1ccc(-c2nc(Cn3c(-c4ccccc4)nc(C)c(CCO)c3=O)c(C)o2)cc1
-0.2% | CO[C@H]1C(=O)N(C(C)C)[C@H]1C1CCN(C(=O)c2ccc(Cn3nc(C)cc3C)o2)CC1
3.0%[70.6 µM] | O=C(C[C@@H]1O[C@H](CNC(=O)C2CC2)[C@@H](O)[C@H]1O)NCCN1CCOCC1
1.8% | CO[C@H]1C(=O)N(C2CCN(Cc3scnc3C)CC2)[C@H]1c1ccncc1
-9.1% | COc1ccc(-c2cc(N3CCCC(NC(=O)c4ccc(C)cc4)C3)n[nH]2)cc1 (stereo unspecified)
-0.4%[70.6 µM] | CN1CCOc2c(C(=O)NCCc3cnc[nH]3)cc(-c3ccccc3)cc21
8.2% | O=C(c1ccccc1)N1CCC2(CN[S+](=O)([O-])c3ccccc3N2)C1 (stereo unspecified)
-13.0% | O=C(NCc1ccccn1)C1CCN(c2cc(C3CC(O)C3)ncn2)CC1 (stereo unspecified)
-11.8% | CCc1ccccc1S(=O)(=O)N1CCN(C2CCN(Cc3ccccn3)C2=O)CC1 (stereo unspecified)
-3.9% | COc1ccccc1N1CCN([C@@H]2[C@H](O)[C@H](CO)O[C@@H]2CNC(C)C)CC1
-3.2% | COCCn1nc2n(c1=O)CCN(Cc1cccc(OC)n1)CC2
4.2%[70.6 µM] | COc1cccc(N2CC(C(=O)NCC(F)F)NC2=O)c1 (stereo unspecified)
5.0% | Cc1ccc(-c2cc3c(=O)n(CCNC(=O)c4ccccc4F)ccn3n2)cc1C
-0.2% | O=C1NCCCCCCN(C(=O)c2ccsc2)[C@H]2C[C@H](c3nc(-c4cnccn4)no3)C[C@@H]12
3.6% | CN1CCC(N2CCN(S(=O)(=O)Cc3ccccc3)CC2)C1=O (stereo unspecified)
-1.0% | Cc1noc(C)c1CN1CCCC(N)C1 (stereo unspecified)
-15.2% | Cc1noc(-c2ccc3c(c2)OCO3)c1C(=O)NCCc1cccc(Cl)c1
3.6% | CC1(Cc2ccc3c(c2)OCO3)CCCN(C(=O)CN2CCCC2=O)C1 (stereo unspecified)

Copied from the list.
`Cc1nc2ncccn2c1C(=O)N1C[C@H]2C(=O)NC[C@@]2(C(=O)O)C1` – hNpr1 antagonist = -0.4%
`Cc1ccc(-c2nc(Cn3c(-c4ccccc4)nc(C)c(CCO)c3=O)c(C)o2)cc1` – hNpr1 antagonist = 5.9%
`COc1ccccc1-c1cn2c(n1)CO[C@@H](CNC(=O)c1ccc(F)cc1)C2` – hNpr1 antagonist = 1.9%[70.6 µM]
`O=C(Cc1ccsc1)N1CCC2(CC1)CC(OCC1CC1)CCO2` (stereo unspecified) – hNpr1 antagonist = 3.8%
`CCCS(=O)(=O)N1C[C@@H](Oc2cccnc2)C[C@@H]1C(=O)N1CCOCC1` – hNpr1 antagonist = -7.9%

(further entries)
hNpr1 antagonist | SMILES
1.2% | O=C1CCN(C(=O)C2CCN(C(=O)c3cccnc3)CC2)CCCCCCN1
-6.8% | CN(Cc1ccccc1)C1CCOC2(CCN(C(=O)NCc3ccc(F)cc3)CC2)C1 (stereo unspecified)
? | Cc1ccc(C2=NC3(CCN(C(=O)c4ccc5cc[nH]c5c4)CC3)ON2)cc1
0.4% | Cc1nc(-c2cnccn2)n(CC(=O)Nc2ccc3c(c2)OCO3)c(=O)c1C
4.0% | CC1(C)CN(Cc2nnc(-c3cccc(F)c3)o2)CC[C@]1(C)O
0.5% | CN(CC1CCOC1)C(=O)Nc1ccc(Br)cc1 (stereo unspecified)
2.5% | CN(C(=O)CCS(=O)(=O)c1ccccc1)C1CCc2nn(C)c(=O)n2CC1 (stereo unspecified)
2.5% | CCN(CC)CCNC(=O)c1c(OCCOC)cc(=O)n2c1CCOCC2
-1.8% | CN(Cc1cccnc1)C1CN(S(=O)(=O)c2ccc3c(c2)OCCO3)C1
-13.1% | CCCN(CC1CCOC1)C(=O)Nc1cc(Cl)ccc1OC (stereo unspecified)
1.0%[70.6 µM] | Cc1noc2c(NCCc3ccccn3)cc(-c3ccccn3)nc12
2.7% | CCn1cc(CN2CCCCCNC(=O)[C@@H]3CCC[C@@H]32)cn1
4.7% | CC(C)C1CN(c2cncc(C(=O)N3CCCC3)n2)CCC(=O)N1CC1CC1 (stereo unspecified)
4.6% | CC(C)NS(=O)(=O)c1ccc2c(c1)nc(CCC(N)=O)n2C(C)C
2.1% | CCOCC(=O)N1CCC(O)(c2ccccc2)[C@H](N2CCCC2)C1 (stereo partly specified)
-0.5%[70.6 µM] | COCCOc1cc(C)c2c(c1C)C[C@H]([C@H](C)C(=O)NC1CCCC1)CC2
1.4% | O=C1C(N2CCN(S(=O)(=O)c3ccccc3)CC2)CCN1Cc1ccccn1 (stereo unspecified)
-0.5% | O=C(c1ccc(C2CCCNC2)cc1)N(Cc1ccccn1)C1CCCCC1 (stereo unspecified)
0.7% | Cc1cc(C)cc(NC(=O)CC(=O)N2CCN(C)C3(CCN(C)CC3)C2)c1
-2.2% | CCN(CC)c1cc(CCC(=O)NCc2cc(OC)ccc2OC)ccn1

Ordered by formula weight (smallest number first): part of the list above
hNpr1 antagonist | SMILES
4.0% | CC1(C)CN(Cc2nnc(-c3cccc(F)c3)o2)CC[C@]1(C)O
0.4% | Cc1nc(-c2cnccn2)n(CC(=O)Nc2ccc3c(c2)OCO3)c(=O)c1C
2.5% | CCN(CC)CCNC(=O)c1c(OCCOC)cc(=O)n2c1CCOCC2

Next part.
hNpr1 antagonist | SMILES
1.41µM* | CC(C)S(=O)(=O)N1CC(Oc2ccc(-c3noc(-c4cccnc4)n3)cc2)C1
0.7% | CN1C(=O)N(C)C2(CCN(CCc3ccccc3)C2)C1=O (stereo unspecified)
1.3% | COc1ccc(CNC(=O)NCC2Cn3cccc3C(=O)N2C)cc1 (stereo unspecified)
2.0% | COC(=O)c1c(NC(C)=O)c2cc(NC3CCCCC3)cnc2n1CC1CCCO1 (stereo unspecified)
-5.7% | Cc1ccccc1C(=O)NC(C(=O)N1CCCC1)C1CCN(C(=O)c2ccc3c(c2)OCO3)CC1 (stereo unspecified)
0.4% | Cc1ccc(N2CC(c3noc(-c4cnccn4)n3)CC2=O)cc1 (stereo unspecified)
13.7%[70.6 µM] | O=CN1CCC(n2cnc3cccnc32)CC1
1.1%[70.6 µM] | CCCNC(=O)N[C@@H]1C[C@H](COc2ccc(S(C)(=O)=O)cc2)[C@@H](O)[C@H]1O
-12.5% | CCOCCCNC(=O)c1cc2cn(C3CC3)cc2s1
6.7%[70.6 µM] | Cn1ccnc1CN[C@@H]1CO[C@H](CNC(=O)N2CCOCC2)[C@H]1O
-4.3% | COC[C@@H]1CN(C(=O)c2cc[nH]c(=O)c2)C[C@H]1c1ccncc1
7.4% | COc1ccc(Cl)cc1C(=O)NCc1nnc2cc(-c3nc(C)no3)ccn12
-7.0%[70.6 µM] | CN1CCN(c2cc(=O)c3ccnc(-c4ccccc4O)c3o2)CC1
1.7% | Cc1c(Cl)cc(C(=O)NCC2CNCCOC2)cc1Cl (stereo unspecified)
-3.9%[70.6 µM] | O=C(C1CCCC1)N1CCn2c(nn(-c3ccc(F)cc3)c2=O)C1
-3.2% | COc1cc(NC(=O)CN2C(=O)NC3(CCC(C(C)(C)C)CC3)C2=O)cc(OC)c1OC (stereo unspecified)
6.8% | Cc1ccc(CNC(=O)N2CCCC3(CCC(=O)N(CC4CC4)C3)C2)cc1 (stereo unspecified)
-0.3%[70.6 µM] | COc1ccc(-c2nnc3ccc(NCCc4ccccn4)nn23)nc1
-5.6% | CCc1cc(CNC(=O)C2CCN(c3nc(-c4ccccc4)nc4c3CCC4)CC2)on1
0.8% | O=C(NCc1nnc2ccc(-c3ccccc3)nn12)c1ccc[nH]c1=O
-14.8% | COc1ccc(Cl)cc1-c1ccc2c(c1)C(=O)N1CCN(C(=O)COc3ccccc3)C[C@@H]1C(=O)N2
-0.4%[70.6 µM] | COCCNC(=O)c1cnc2c(c1)N(Cc1ccccc1C(F)(F)F)CCC2
-0.4% | Cc1c(C(C)NC(=O)c2cc(=O)[nH]c(=O)[nH]2)cnn1-c1cccc2ccccc12 (stereo unspecified)
-0.5% | Cc1noc(-c2cccs2)c1C(=O)NC(C)c1cccc2ccccc12 (stereo unspecified)
3.7% | CNC(=O)[C@H]1CN(Cc2ccccc2)C[C@H]1C(=O)O
0.6% | CN(Cc1cccnc1)C1CN(C(=O)CCc2nc3ccccc3s2)C1
11.1% | O=C(Cn1ccn2nc3c(c2c1=O)CCCCC3)Nc1cc(F)ccc1F
-7.7% | CC(=O)N(C1CCOCC1)C1CCN(S(=O)(=O)c2ccc3c(c2)OCCO3)CC1
-0.4% | CC(=O)N1CCN(C(=O)c2cnc3c(c2)N(C(=O)Cc2ccc(C(C)C)cc2)CCC3)CC1

Molecules above that contain bromine:
hNpr1 antagonist | SMILES
-15.3% | O=C(c1cncc(Br)c1)N1CCC(CCOc2ccccc2F)C1 (stereo unspecified)
0.5% | CN(CC1CCOC1)C(=O)Nc1ccc(Br)cc1 (stereo unspecified)
